Arbovirus inh = antivirals against arbovirus infection, primary screen, cell-based, full library, 10K replicate subset | arbovirus infection cell-based antiviral screen | inhibition, % at 10 µM | 200,000 compounds, 0.37% hits | AID 1251, 2008;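 active means inhibition from about 30%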;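 further: bluetongue infection of BSR cells; cell survival read as ATP light after 72 h; 0% = infected wells without compound and 100% = uninfected wells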
Mtb growth = M. tuberculosis H37Rv growth inhibitors, H37Rv strain (AID 1626) | M. tuberculosis H37Rv growth inhibition; higher % means a stronger effect | 220,000 compounds, 0.95% hits | inhibition, % at 10 µM; hits with a dose series show IC50 in µM;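 active means confirmed in a dose series; inconclusive means inhibition above 80% but not taken into the dose series; inactive means below 80% or under 30% at every dose of the series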;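 further: bacteria incubated seven days before Alamar blue readout; 0% = bacteria only wells and 100% = bacteria with antibiotic wells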
Mtb bLac sens = beta-lactam sensitization of Mtb H37Rv, H37Rv; M. tuberculosis H37Rv growth with meropenem, percent inhibition; hits of this screen are not shown here; inhibition, % at 25 µM; 330,000 compounds, 0.27% hits; AID 434955, 2010;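 active means about 74% or more and at least 40 points above the plate without the antibiotic, then above 30% in a dose series; inconclusive means first-round hits that could not be retested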;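 further: growth measured after seven days incubation then overnight dye step; 0% = bacteria only wells and 100% = bacteria with antibiotic; twin plates without the antibiotic show which effects depend on it; some results filed as inactive read as strong as hits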
RecA splice inh = Mtb RecA intein splicing inhibitors, primary screen, biochemical, fluorescence, HTS; Protein RecA (Mycobacterium tuberculosis (strain ATCC 25618 / H37Rv)), P9WHJ3; cell-free RecA intein splicing; inhibition, %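 (about 9 µM by stock and volumes)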; 290,000 compounds, 0.75% hits; AID 2221, 2009; in the data active means inhibition above about 30%; inconclusive means no clear call, values can overlap the other calls;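 further: 0% = vehicle wells and 100% = reference inhibitor control wells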
Target sequence (P9WHJ3 whole entry, looked up, canonical isoform): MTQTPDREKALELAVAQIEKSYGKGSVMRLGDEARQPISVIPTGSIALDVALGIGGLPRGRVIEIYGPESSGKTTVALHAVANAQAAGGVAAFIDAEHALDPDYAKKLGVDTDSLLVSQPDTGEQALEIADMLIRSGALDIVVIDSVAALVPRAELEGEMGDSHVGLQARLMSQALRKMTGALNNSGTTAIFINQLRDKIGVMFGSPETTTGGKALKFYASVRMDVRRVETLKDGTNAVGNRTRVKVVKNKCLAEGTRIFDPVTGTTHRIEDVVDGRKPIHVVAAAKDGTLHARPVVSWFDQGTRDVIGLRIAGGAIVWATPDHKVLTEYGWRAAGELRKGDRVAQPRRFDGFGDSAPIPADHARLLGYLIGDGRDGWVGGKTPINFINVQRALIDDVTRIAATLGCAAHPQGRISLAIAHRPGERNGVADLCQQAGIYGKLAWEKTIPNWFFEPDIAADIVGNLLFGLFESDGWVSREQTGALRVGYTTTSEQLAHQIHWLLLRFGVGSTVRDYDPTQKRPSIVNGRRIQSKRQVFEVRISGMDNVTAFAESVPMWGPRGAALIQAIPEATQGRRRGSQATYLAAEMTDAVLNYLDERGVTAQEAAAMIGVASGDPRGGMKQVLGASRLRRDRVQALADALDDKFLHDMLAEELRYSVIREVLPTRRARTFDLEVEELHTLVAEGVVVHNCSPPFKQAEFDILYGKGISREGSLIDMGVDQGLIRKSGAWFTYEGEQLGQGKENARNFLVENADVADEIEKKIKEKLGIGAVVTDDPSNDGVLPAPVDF
YopH inh = YopH tyrosine phosphatase inhibitors, primary screen, biochemical, fluorescence Ex485/Em525 | 140,000 compounds, 0.16% hits | inhibition, %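 (about 10 µM by stock and volumes)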 | YopH tyrosine phosphatase [Yersinia enterocolitica];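 active means inhibition of 50% or more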;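 further: controls were vehicle for no effect and minimum signal wells for full effect; inactives centre near -20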
Starred values were filed as active, the others as inactive; ? = inconclusive; · = no result given. Only part of the results is shown (hit frequency here may not be typical).

Under each structure: Arbovirus inh, Mtb growth, Mtb bLac sens, RecA splice inh, YopH inh
> Cc1ccc(OCC(=O)Nc2ccc([N+](=O)[O-])cc2)cc1
    5, 1%, 3, 1.6, -24
> O=C(CCCn1c(=S)[nH]c2cc3c(cc2c1=O)OCO3)N1CCN(c2ccccc2F)CC1
    18, -1%, 43, -1.1, 8
> CCCCCOc1ccc(NC(=O)C(=O)NCC2CCCN2CC)cc1 (stereo not given)
    -21, 83%, -9, -0.3, ·
> CCOCCCNC(=O)C(Cc1ccccc1)NS(=O)(=O)c1cccc2nsnc12 (stereo not given)
    1, 3%, -1, -3.2, ·
> COc1ccc(C)cc1S(=O)(=O)n1cnc(C)c1
    ·, ·, -1, 6.4, ·
> O=C(COCc1cc(-c2ccc3c(c2)OCO3)on1)N1CCN(c2cccc(Cl)c2)CC1
    ·, ·, 14, -1.7, ·
> O=C(Cn1cnc2c(nnn2Cc2ccc(F)cc2)c1=O)N1CCCCC1
    -4, ·, -11, 1.4, -14
> CCc1cccc(NC(=O)c2ccc3c(=O)n4c(nc3c2)CCCCC4)c1
    ·, 5%, 3, 7.2, ·
> COc1ccc(-n2c(C)nc3sc4c(c3c2=O)CCCC4)cc1
    0, 12µM*, 100, 1.9, ·
> COc1ccc(/C(O)=C2/C(=O)C(=O)N(CCCN(C)C)C2c2ccccc2)cc1OC (stereo not given)
    -6, -8%, -6, 3.3, -35
> c1ccc(-c2nnc(N3CCOCC3)c3ccccc23)cc1
    1, -7%, 0, 2.7, ·
> Cc1ccc(CCNC(=O)C2CCC(=O)N2Cc2cccnc2)cc1 (stereo not given)
    7, 1%, -5, -0.8, -22
> CCOC(=O)c1c(N)sc2c1CCN(CCc1ccccc1)C2
    ·, ·, 2, -21, ·
> CC(C)N=C(Nc1ccccc1)c1cccnc1
    5, 4%, -7, -0.3, -20
> CCc1c(C)nc2ncnn2c1N1CCCC(C(=O)Nc2ccc(NC(C)=O)cc2)C1 (stereo not given)
    9, ·, -10, 1.7, -61
> COc1ccccc1/C=C(/C(=O)OCC(=O)Nc1ccccc1C(C)C)c1ccccc1
    2, 5%, 5, 20, -10
> CSc1nsc(NC(=O)Nc2ccccc2)n1
    ·, ·, -10, 5.4, ·
> Cc1c(NC(=O)Nc2ccccc2)cccc1[N+](=O)[O-]
    17, 10%, ?, -1.6, -17
> COc1ccc(Cl)cc1NC(=O)Nc1ccc(C(=O)N2CCCC2)cc1
    ·, ·, -11, 0.3, ·
> COc1cccc(-c2cc(C(F)(F)F)n3ncc(C(=O)O)c3n2)c1
    4, 2%, -19, -1.8, -16
> OC(COC(c1ccc(F)cc1)c1ccc(F)cc1)CN1CCCC1 (stereo not given)
    ·, ·, 1, -0.9, ·
> Cc1ccc(C(=O)n2cnnc2N)cc1
    -7, -1%, -1, 11, 4
> O=[N+]([O-])c1cccc(N2Cc3ccccc3C2)c1
    0, -1%, 0, -0.6, ·
> CCOC(=O)c1ccc(NC(=O)CCSCCc2ccccn2)cc1
    -7, 55µM*, 95, 0.0, ·
> CCOC(=O)C1(Cc2cccc(F)c2)CCN(Cc2cnn(CC)c2C)CC1
    -4, -7%, 2, 1.9, ·
> COc1ccccc1NC(=O)COc1ccc(/C=N/NC(=O)CSCc2ccc(Cl)cc2)cc1
    -15, ·, 24, 2.7, 15
> O=C([O-])c1ccc(-[n+]2c(-c3ccccc3)cc(-c3ccccc3)cc2-c2ccccc2)cc1
    ·, ·, 73, 2.3, ·
> Cc1ccccc1NP(=O)(Oc1ccccc1F)Oc1ccccc1F
    9, 2%, 8, 3.5, -32
> Cc1cccc(C)c1NC(=O)CN(C)C(=O)c1ccccc1Cc1ccccc1
    ·, ·, 4, 0.4, ·
> COc1ccc(Cl)cc1NC(=O)NCc1ccccn1
    ·, ·, -6, -3.6, ·
> Cc1cccc(C(=O)N(Cc2nc3ccccc3c(=O)[nH]2)C2CCCCC2)c1
    -5, 6%, 0, 6.1, ·
> N#Cc1cc2ccccc2nc1SCC(=O)Nc1ccc(S(=O)(=O)N2CCCC2)cc1
    -11, 7%, 21, 1.7, -35
> CCc1cc(C)cc(OCCNC(=O)c2ncn[nH]2)c1
    -5, 2%, -2, -0.9, -42
> Cc1ccc(F)cc1NC(=O)CCC(=O)c1cccs1
    -1, 4%, 0, ·, -4
> O=C(/C=C/c1ccco1)N1CCN(c2ccc(F)cc2)CC1
    ·, 12%, -2, 1.8, ·
> COc1cc(NC(=O)Cn2cnc3c(nc4n3CCCCC4)c2=O)cc(OC)c1OC
    ·, ·, -2, -0.7, ·
> Cc1cccc(N(CC(=O)NCc2ccco2)C(=O)CCC(=O)Nc2nccs2)c1C
    ·, ·, 1, 19, ·
> Nc1ccc(S(=O)(=O)NC2=NCCCCC2)cc1
    ·, 6%, -4, -0.3, ·
> O=C1c2oc3ccc(F)cc3c(=O)c2C(c2ccccc2)N1CC1CCCO1 (stereo not given)
    14, 0%, -5, -2.5, -34
> Cc1cc(=O)n2[nH]c(CCC(=O)O)nc2n1
    ·, 1%, 7, 0.7, ·

Part of the list above, with tabs:
compound	Arbovirus inh	Mtb growth	Mtb bLac sens	RecA splice inh	YopH inh
CCOC(=O)c1ccc(NC(=O)CCSCCc2ccccn2)cc1	-7	55µM*	95	0.0	·
CCOC(=O)C1(Cc2cccc(F)c2)CCN(Cc2cnn(CC)c2C)CC1	-4	-7%	2	1.9	·
COc1ccccc1NC(=O)COc1ccc(/C=N/NC(=O)CSCc2ccc(Cl)cc2)cc1	-15	·	24	2.7	15
O=C([O-])c1ccc(-[n+]2c(-c3ccccc3)cc(-c3ccccc3)cc2-c2ccccc2)cc1	·	·	73	2.3	·
Cc1ccccc1NP(=O)(Oc1ccccc1F)Oc1ccccc1F	9	2%	8	3.5	-32
Cc1cccc(C)c1NC(=O)CN(C)C(=O)c1ccccc1Cc1ccccc1	·	·	4	0.4	·
COc1ccc(Cl)cc1NC(=O)NCc1ccccn1	·	·	-6	-3.6	·
Cc1cccc(C(=O)N(Cc2nc3ccccc3c(=O)[nH]2)C2CCCCC2)c1	-5	6%	0	6.1	·
N#Cc1cc2ccccc2nc1SCC(=O)Nc1ccc(S(=O)(=O)N2CCCC2)cc1	-11	7%	21	1.7	-35
CCc1cc(C)cc(OCCNC(=O)c2ncn[nH]2)c1	-5	2%	-2	-0.9	-42
Cc1ccc(F)cc1NC(=O)CCC(=O)c1cccs1	-1	4%	0	·	-4
O=C(/C=C/c1ccco1)N1CCN(c2ccc(F)cc2)CC1	·	12%	-2	1.8	·
COc1cc(NC(=O)Cn2cnc3c(nc4n3CCCCC4)c2=O)cc(OC)c1OC	·	·	-2	-0.7	·
Cc1cccc(N(CC(=O)NCc2ccco2)C(=O)CCC(=O)Nc2nccs2)c1C	·	·	1	19	·
Nc1ccc(S(=O)(=O)NC2=NCCCCC2)cc1	·	6%	-4	-0.3	·
O=C1c2oc3ccc(F)cc3c(=O)c2C(c2ccccc2)N1CC1CCCO1 (stereo not given)	14	0%	-5	-2.5	-34

Going on with the list.
Under each structure: Arbovirus inh, Mtb growth, Mtb bLac sens, RecA splice inh, YopH inh
> CC1CCc2cc(F)ccc2N1C(=O)CSc1nnc2c(n1)[nH]c1ccc(F)cc12 (stereo not given)
    -34, 11%, 41, 0.0, -31
> Cc1cc(C)cc(NC(=O)C2CCCN2S(=O)(=O)c2ccc3c(c2)n(C)c(=O)c(=O)n3C)c1 (stereo not given)
    ·, ·, 1, 0.4, ·
> COc1cc(OC)c(C2C3=C(CCCC3=O)Nc3nc4ccccc4n32)cc1OC (stereo not given)
    -3, -12%, 12, -3.0, -26
> Clc1ccc(CN2CCCCCC2)cc1
    ·, ·, 0, -0.5, ·
> CCOc1ccc(/C=C(/NC(=O)c2ccc(Cl)cc2)C(=O)O)cc1OCC
    ·, 3%, -2, -1.4, ·
> Cc1ccccc1NC(NC(=O)c1cccnc1)C(Cl)(Cl)Cl (stereo not given)
    5, 4%, 4, 1.9, -14
> Cc1cc(C)n(-c2nnc(NCc3ccc(Cl)cc3)nn2)n1
    -22, 9%, 24, 2.3, ·
> Cc1cc(F)ccc1NC(=O)CCCN(C)S(=O)(=O)c1ccc(F)cc1
    ·, ·, -4, 3.6, ·
> Cc1[nH]c2ccccc2c1C(=O)COC(=O)c1c(-c2ccccc2Cl)noc1C
    -30, 4%, 9, -2.6, -20
> O=C(NCC1COc2ccccc2O1)C1C2C=CC3(CN(Cc4cccs4)C(=O)C13)O2 (stereo not given)
    8, -3%, -11, 0.8, -25
> CN1CCN(c2nc3c(c(=O)n(C)c(=O)n3C)n2Cc2ccc(F)cc2)CC1
    ·, ·, -4, -4.6, ·
> CCN(CC)CCN1C(=O)C(=O)/C(=C(/O)c2ccc(S(=O)(=O)N3CCOCC3)cc2)C1c1ccccc1 (stereo not given)
    ·, ·, 6, -2.2, ·
> CNC(=S)Nc1cccc(Cl)c1C
    1, 7%, 2, -2.3, ·
> Cc1ccc(-n2c(N)c(C(=O)NCc3ccco3)sc2=S)cc1
    7, -6%, 6, -0.5, -6
> COc1cccc(/C=N/NC(=O)CN(CCc2ccccc2)S(=O)(=O)c2ccc(NC(C)=O)cc2)c1
    12, 1%, 2, 6.6, -29
> O=C(/C=C/c1ccccn1)c1cc(Cl)cc(Cl)c1O
    ·, 14%, 44, -2.1, ·
> COC(=O)NC(C)N1C(=O)C2C3C=CC(C3)C2C1=O (stereo not given)
    0, 5%, -10, 0.3, ·
> Cc1cccc(NC(=O)c2nc[nH]c2C(=O)Nc2ccccc2[N+](=O)[O-])c1
    -2, 3%, 24, -1.3, -6
> COc1ccc2c(c1)c(C(=O)CN1CCCCC1)c(C)n2C
    ·, ·, -13, 3.0, ·
> Cc1cc2nc(-c3ccc[nH]c3=O)n(Cc3ccc(F)cc3)c2cc1C
    ·, ·, 1, -0.7, ·

A stretch from further up, as a working copy:
Under each structure: Arbovirus inh, Mtb growth, Mtb bLac sens, RecA splice inh, YopH inh
> COc1ccc2c(c1)c(C(=O)CN1CCCCC1)c(C)n2C
    ·, ·, -13, 3.0, ·
> Cc1cc2nc(-c3ccc[nH]c3=O)n(Cc3ccc(F)cc3)c2cc1C
    ·, ·, 1, -0.7, ·

Remaining list, next part.
Under each structure: Arbovirus inh, Mtb growth, Mtb bLac sens, RecA splice inh, YopH inh
> O=c1[nH]c(=O)n(CCc2ccc(F)cc2)c(O)c1/C=N/N1CCCCC1
    ·, -5%, 0, 1.3, ·
> Cc1cc(C)n2nc(SCC(=O)NC(=O)NCc3ccco3)nc2n1
    5, -2%, -8, 0.0, ·
> Cc1nn2c(-c3ccc(F)cc3)ccnc2c1Br
    ·, ·, 6, 0.2, ·
> CCOC(=O)c1cc(-c2ccccc2)sc1NC(=O)CN1C(=O)NC(CC)(c2ccccc2)C1=O (stereo not given)
    -9, 1%, 15, 0.2, -2
> COc1nccnc1NS(=O)(=O)c1ccc(NCc2ccccc2O)cc1
    ·, ·, -1, 1.0, ·
> O=C(CCN1CCOCC1)N1CCCC(Nc2cccc(F)c2)C1 (stereo not given)
    ·, ·, -1, -0.8, ·
> CCOC(=O)c1[nH]c(C)c(C(=O)NCc2ccc(OC)cc2)c1C
    -6, -7%, ?, -0.1, -23
> CCn1c(SCC(=O)NCCc2ccc(OC)c(OC)c2)nc2c1c(=O)n(C)c(=O)n2C
    -1, -3%, -10, 1.8, -21
> O=C(NNS(=O)(=O)c1ccccc1F)c1ccccc1-n1cccc1
    ·, ·, -9, -26, ·
> O=S(=O)(N/N=C/c1c(F)cccc1Cl)c1ccccc1
    -2, 2%, 6, -0.5, -26
> Cc1ccc(S(=O)(=O)CCC(=O)OCC(=O)N(C)CC(=O)Nc2ccc(F)cc2)cc1
    ·, ·, -2, -2.3, ·
> O=C(c1ccc(-n2cccc2)cc1)N1CCCCC1
    7, 0%, -2, -0.6, ·
> Brc1cc2c(cc1Cn1c(-c3cncs3)nc3ccccc31)OCO2
    -1, -11%, 3, ·, -15
> O=C(Cn1nc([N+](=O)[O-])nc1Br)NC(c1ccccc1)c1ccccc1
    11, 11%, 4, 0.3, -27

Bioassay records as filed in PubChem BioAssay.
